H5N1 antiviral – antiviral screen in MDCK cells, H5N1 avian flu. cytopathic effect, luminescence, 72 h; active compounds read high; no value below 0 was filed and about half of the inactive calls have no number; reference of the scale not given here. inhibition, % at 50 µM. hit rate 0.07% among 96,000; in the data active = inhibition above about 25%
Starred values were filed as active, the others as inactive; i = inactive.

SMILES,H5N1 antiviral
O=C(NCCCCCCCCCNC(=O)C(F)(F)F)C(F)(F)F,i
CC1(C)CC(=O)C(/C=N/c2ccccn2)=C(O)C1,i
COc1ccc(CCN(C)C(=O)N2CCOCC2)cc1OC,i
O=Cc1c(Sc2ccccc2)nc2ccccn2c1=O,i
O=C1c2ccccc2NC(c2ccc(-c3cccc(Cl)c3)o2)N1O (stereo unspecified),i
CCn1nnc(-c2ccccc2NC(=O)C(F)(F)F)n1,i
COc1ccc(C(C)=O)cc1COC(=O)c1ccc(S(=O)(=O)N2CCOCC2)cc1,1.3
O=C(NC1CCCCCC1)c1cc(S(=O)(=O)N2CCC3(CC2)OCCO3)ccc1F,1.6
O=C(CCNS(=O)(=O)c1cccc2nsnc12)NC1CCN(Cc2ccccc2)CC1,i
Cc1cc(C)c2nc(SCC(=O)Nc3ccc(S(=O)(=O)N4CCCC4)cc3)c(C)cc2c1,0.3
CC(=O)NCCN1C(=O)C2C3c4ccccc4C(c4ccccc43)C2C1=O (stereo unspecified),i
Cc1cccc(C(=O)Nc2cc(=O)n(C)c(=O)n2C)c1,i
CCOC(=O)c1[nH]c2cc(OC)c(OC)cc2c1NC(=O)c1ccc2c(c1)OCO2,i
CCOC(=O)c1ccc(-c2c(C(=O)OCC)oc3cc(O)c(CC)cc3c2=O)o1,1.1
O=C(/C=C/c1ccco1)Nc1sc2c(c1C(=O)O)CCC2,i
COc1ccccc1Nc1nc(N)nc(CSc2nnc(C)s2)n1,0.7
COc1cc2ccccc2cc1-c1nnc(COc2ccccc2)o1,i
COc1cccc(CN(CC(=O)NCC2CCCO2)C(=O)CCC(=O)Nc2cc(C)on2)c1 (stereo unspecified),i
CCOc1ccc(C(=O)CSc2nnc(N)s2)cc1,0.7
Cc1oc(C(C)(C)C)cc1C(=O)Nc1ccc2c(c1)OCCO2,1.8
CSc1nc2sc3c(c2c(=O)n1C1CCCCC1)CCN(C)C3,2.1
Cc1ccc(S(=O)(=O)C2(C(=O)O)CCCC2)cc1C,0.4
Cc1sc2nc(CN3CCOCC3)nc(NS(=O)(=O)c3ccccc3)c2c1C,2.0
COc1ccc(Cc2nnc(SCc3c(C)noc3C)n2C2CCCCC2)cc1OC,1.0
COC(=O)c1ccc(COC(=O)c2ccc(S(=O)(=O)N3CCC(C)CC3)cc2)o1,i
COc1cc2c(cc1OC)CN(CC(=O)Nc1ccc(C)cc1)CC2,0.6
CC(C)CNS(=O)(=O)c1cc(C(=O)N2CC(C)OC(C)C2)c(Cl)cc1Cl (stereo unspecified),0.7
CCOC(=O)CNC(=O)CSc1nc2sc(C)c(C)c2c(=O)n1C,0.8
CCn1cc(C(=O)NCC2COc3ccccc3O2)c2cc(OC)c(OC)cc2c1=O (stereo unspecified),i
Nc1c(C(=O)NCc2ccco2)c2nc3ccccc3nc2n1CCN1CCCCC1,i
O=C(N/N=C/c1cccc(Cl)c1Cl)Nc1ccccc1,1.2
Cc1ccc(CNC(=O)C2CCN(S(=O)(=O)c3cnc[nH]3)CC2)cc1,0.1
O=C(Nc1nnc(-c2ccco2)o1)C1CCCCC1,i
COc1cc(OC)cc(-c2cc3nc(C)c(CCC(=O)NC(C)CCc4ccco4)c(C)n3n2)c1 (stereo unspecified),i
Cc1ccc2[nH]c(=O)c(CN(Cc3cccs3)Cc3nnnn3Cc3ccccc3)cc2c1,i
O=C(CSc1ccc(Cl)cc1)Nc1cccc(-c2nc3ncccc3o2)c1,0.7
Nc1c(-c2ccc(Cl)cc2)nnn1-c1ccccc1,i
O=C(O)Cc1csc(NC(=O)c2ccco2)n1,i
CC(C)C1NC2(C(=O)c3ccccc3C2=O)C2C(=O)N(c3ccc(F)cc3)C(=O)C12 (stereo unspecified),i
CC(N1CCOC1=O)S(=O)(=O)c1ccccc1 (stereo unspecified),1.1
O=C(Cc1ccc(Cl)cc1)Nc1ccc(N2CCN(C(=O)c3ccco3)CC2)cc1,0.2
Nc1cc(N)nc(SCC(=O)NNC(=O)c2ccc(Cl)cc2)n1,0.2
Cc1ccc(C(=O)CSc2ccccn2)cc1,0.9
Cc1cc(C)c2c(CN3CCN(C)CC3)cc(=O)oc2c1,1.8
Cc1[nH]n(-c2ccccc2)c(=S)c1C=Nc1cccc([N+](=O)[O-])c1,i
O=c1cc(-c2ccccc2)nc2n1Cc1ccccc1-2,1.6
Cc1ccc(CNS(=O)(=O)/C=C/c2ccc3c(c2)OCO3)cc1,1.4
COc1ccc(F)cc1CN1CCN(c2cc(C)nc3c4c(C)cc(C)nc4nn23)CC1,i
N/C(=N\OC(=O)Nc1ccc(Cl)cc1)c1ncc(C(F)(F)F)cc1Cl,i
Cc1noc(N)c1C(=O)Nc1ccc(C(C)(C)C)cc1,1.2

Three entries from above, arranged by length of the SMILES, rising:
SMILES,H5N1 antiviral
O=C(N/N=C/c1cccc(Cl)c1Cl)Nc1ccccc1,1.2
Cc1cc(C)c2c(CN3CCN(C)CC3)cc(=O)oc2c1,1.8
CC(C)C1NC2(C(=O)c3ccccc3C2=O)C2C(=O)N(c3ccc(F)cc3)C(=O)C12 (stereo unspecified),i

Back to the main list, repeating the three entries before the break.
SMILES,H5N1 antiviral
COc1ccc(F)cc1CN1CCN(c2cc(C)nc3c4c(C)cc(C)nc4nn23)CC1,i
N/C(=N\OC(=O)Nc1ccc(Cl)cc1)c1ncc(C(F)(F)F)cc1Cl,i
Cc1noc(N)c1C(=O)Nc1ccc(C(C)(C)C)cc1,1.2
CCOC(=O)C1CCN(C(=O)Cc2c(C(=O)O)[nH]c3ccccc23)CC1,0.3
O=C(CCc1nc(-c2ccccc2)no1)NCc1ccco1,2.2
CCOCCCNC(=O)C1CCN(C(=O)Nc2ccc(Cl)cc2)CC1,i
O=C(NC1CCCCC1)NC1CCN(C(=S)NCc2ccco2)CC1,i
CCOC(=O)N1CCC(NC(=O)CSCc2nc(-c3cccc(OC)c3)oc2C)CC1,1.0
O=C1c2ccccc2-c2nnc(-c3ccccc3)cc21,i
CCCNC(=O)COC(=O)c1cc(SC)ccc1Cl,i
COc1ccc(NC(=O)COC(=O)C23CCC(=O)N2c2ccccc2S3)cc1 (stereo unspecified),i
CCN(CC)c1ccc(/C=C2/C(=O)N(c3ccc([N+](=O)[O-])cc3)N=C2N2CCOCC2)cc1,i
CCCOc1ccc(N2C(=O)CC(N(O)c3ccccc3)C2=O)cc1 (stereo unspecified),i
Cn1c(SCc2nc3ccccc3c(=O)[nH]2)nnc1-c1ccco1,2.7
CCCn1c(=O)[nH]c2ccccc21,0.3
C=CCNC(=S)N1CCN(c2ncc3c(=O)c(C(=O)O)cn(CC)c3n2)CC1,1.2
Cc1nn(Cc2ccccc2Cl)c(C)c1NC(=O)CCCn1nc(C)c([N+](=O)[O-])c1C,i
Cc1ccccc1NC(=O)Cn1nc(C(F)(F)F)cc1C1CC1,0.1
COCC(C)n1c(C)cc(C(=O)COc2ccc(S(=O)(=O)N3CCOCC3)cc2Cl)c1C (stereo unspecified),1.2
CCCn1cnc2cc(NCc3cccc(OC)c3)ccc21,0.4
COc1cccc(-n2nnc3c(=O)n(Cc4ccc(F)cc4)cnc32)c1,1.5
COc1ccc(OC)c(-c2c[n+](=O)c3c(n2[O-])CCCC3)c1,1.1
O=C(CSc1nc2c(sc3ccccc32)c(=O)n1CCO)NCc1ccco1,6.8
CCC(C)(C)n1nnnc1C(c1ccc(OC)c(OC)c1)N1CCN(c2ccc(F)cc2)CC1 (stereo unspecified),i
COC(=O)C1(CCSC)NC(c2ccccc2OC)C2C(=O)N(C)C(=O)C21 (stereo unspecified),0.2
COc1cccc(C(=O)NNC(=O)C2CC(C)=C(C)CC2C(=O)O)c1 (stereo unspecified),0.4
CCOC(=O)CNC(=O)c1ccc2c(c1)OCCO2,0.2
CCCOC(=O)CCn1c(=S)oc2ccccc21,i
CCCCCCCCCS(=O)(=O)N/N=C/c1cccc([N+](=O)[O-])c1,0.7
CCN1c2ccccc2-c2nc3ccccc3n2C1c1cccnc1 (stereo unspecified),0.3
CCc1ccc(CCC(=O)Nc2ccc(C)cc2C)o1,i
CCOC(=O)NCN1C(=O)C2C3C=CC(C3)C2C1=O (stereo unspecified),0.8
[O-]/C(=C(\C(=S)NCc1ccco1)[n+]1ccccc1)c1ccccc1Br,1.3
N#Cc1cc(-c2cccc(Cl)c2)c[nH]c1=O,0.5
COC(=O)c1cc(OC)c(OC)cc1NC(=O)Nc1ccc(OC)cc1OC,i
CCCn1c(CN2CCN(C(=O)c3ccco3)CC2)nc2c1c(=O)n(C)c(=O)n2C,3.3
O=C(NC1CC2CCC1C2)C1COc2ccccc2O1 (stereo unspecified),i
COc1ccc(C(O)P(=O)(O)CCc2ccccc2)cc1 (stereo unspecified),i
O=C(Nc1cccc2nsnc12)c1ccc2c(c1)OCCO2,i
C=CCOC(=O)C1=C(C)NC(SCC(=O)OCC)=C(C#N)C1c1ccc(O)c(OC)c1 (stereo unspecified),0.1
O=C(NS(=O)(=O)c1ccccc1)c1ccccc1,i
CCOC(=O)CSc1nc2ccc(C)cc2cc1C#N,i
Cc1cc(C)c(C(=O)COC(=O)Cn2cnnn2)cc1C,0.4
CC(=O)Nc1cc(NC(C)=O)c2nc(N)sc2c1,i
O=C(NCCOCC(F)(F)C(F)F)c1cc(F)c(F)cc1Cl,i
O=C(CNCC1CCCCC1)Nc1ccccc1N1CCCCC1,i
C/C(=N/NC(=O)c1cc(C2CC2)[nH]n1)c1cccs1,i
COC(=O)CCc1n[nH]c(=O)[nH]c1=O,1.2
CCOc1ccc(CN2CCCN(C)CC2)cc1,i
CCOc1ccc(/C=N/n2c(SC)nnc2-c2ccccc2)cc1OCC,i
CC(C(=O)Nc1ccccc1C(=O)N1CCCC1)n1nnc2ccccc21 (stereo unspecified),0.4
Cc1ccc(N2C(=O)N(CC(=O)N(C)Cc3ccccc3)C(=O)C2C)cc1 (stereo unspecified),i
COc1cccc(Cn2c(Oc3ccccc3)nc3c2c(=O)n(C)c(=O)n3C)c1,1.2

Other entries.
SMILES,H5N1 antiviral
COc1ccc(NC(=O)COC(=O)Cn2c(C)nc3ccccc32)cc1OC,i
NS(=O)(=O)c1ccc(CNC(=O)/C=C/c2ccccc2)cc1,i
CCc1ccc2nc(NC(=O)c3cc(C)on3)sc2c1,i
Cc1ccccc1NC(=S)NC(NC(=O)C(C)(C)C)C(Cl)(Cl)Cl (stereo unspecified),i
O=C(Nc1ccc(OCC(=O)N2CCN(S(=O)(=O)c3ccccc3)CC2)cc1)c1ccco1,1.2
COc1ccc2oc(-c3ccc(C)c(NC(=O)c4ccc(N5CCOCC5)c([N+](=O)[O-])c4)c3)nc2c1,i
Cc1c(NC(=O)CSc2nnnn2Cc2ccccc2)c(=O)n(-c2ccccc2)n1C,0.1
Cc1cccc(C)c1OCC(O)CN (stereo unspecified),i
CCOC(=O)c1ccccc1NC(=O)COc1cc(=O)n(CC)c2ccccc12,i
COc1ccc(C(=O)Nn2c(SCC(=O)NC3CCCC3)nc3ccccc3c2=O)cc1,i
CCOC(=O)C1CCCN(C(=O)c2ccc(CS(=O)(=O)c3ccc(C)cc3)o2)C1 (stereo unspecified),2.1
COC(=O)Cc1c(C)c2ccc(OC(=O)c3ccccc3)cc2oc1=O,i
O=C(CN1CCN(c2ccccn2)CC1)Nc1cccc(C(F)(F)F)c1,i
CC(C)OC(=O)CSc1nnc(-c2ccccn2)n1-c1ccccc1,0.7
O=C(CN1CCN(c2ccc(F)cc2)CC1)c1ccc2c(c1)OCO2,i
O=C(COc1ccc(F)cc1)N(CC1=CCS(=O)(=O)C1)c1ccccc1,1.3
O=C(c1cccs1)N1CCN=C1SCc1ccccc1,1.5
Cc1cccc(NC(=O)Cn2cnc3sc(C)c(S(=O)(=O)N4CCC(C)CC4)c3c2=O)n1,0.3
CC(C)(C)CC(C)(C)NCC(O)COc1c(F)cc(Br)cc1F (stereo unspecified),i
O=C(Nc1c(-c2ccccc2)nc2c(Br)cc(Br)cn12)c1ccco1,i
O=C1C2C(C(=O)N1Cc1cccnc1)C1C=CC2C12CC2 (stereo unspecified),0.1
CCOC(=O)/C=C1\SCC(=O)N1CC(O)CN1C(=O)CS/C1=C\C(=O)OCC,2.6
COc1ccc(-n2c(SCC(=O)Nc3nccs3)nnc2-c2ccccc2)cc1,0.7
COc1ccc(Br)cc1CN1CCN(C(=O)Cc2ccccc2)CC1,i
Cc1cccc(NC(=O)CN2C(=O)NC(Cc3ccccc3)C2=O)c1 (stereo unspecified),0.4

Brought forward from above: seven compounds; new compounds follow.
SMILES,H5N1 antiviral
CC(C)(C)CC(C)(C)NCC(O)COc1c(F)cc(Br)cc1F (stereo unspecified),i
O=C(Nc1c(-c2ccccc2)nc2c(Br)cc(Br)cn12)c1ccco1,i
O=C1C2C(C(=O)N1Cc1cccnc1)C1C=CC2C12CC2 (stereo unspecified),0.1
CCOC(=O)/C=C1\SCC(=O)N1CC(O)CN1C(=O)CS/C1=C\C(=O)OCC,2.6
COc1ccc(-n2c(SCC(=O)Nc3nccs3)nnc2-c2ccccc2)cc1,0.7
COc1ccc(Br)cc1CN1CCN(C(=O)Cc2ccccc2)CC1,i
Cc1cccc(NC(=O)CN2C(=O)NC(Cc3ccccc3)C2=O)c1 (stereo unspecified),0.4
O=C1c2ccsc2SCCN1Cc1ccccc1Cl,i
CCN(CC)CC(=O)Nc1c(Br)ccc2c1OCO2,1.0
COC(=O)COc1ccc(Oc2cc(C)nc(SC)n2)nn1,1.6
CCOC(=O)/C=C/C(=O)N1CCc2ccccc21,0.6
O=C(NC1CCN(C(=O)Nc2ccccc2)CC1)C1CCCCC1,i
CCOC(=O)CSC1=Nc2ccccc2C2=NC(CC(=O)NCc3ccc4c(c3)OCO4)C(=O)N12 (stereo unspecified),0.5
Cc1c(NC(=O)C2(c3ccc(Cl)cc3)CCCC2)c(=O)n(-c2ccccc2)n1C,i

Only part of the results is shown (hit frequency here may not be typical).
